PINK1 expr mod = PINK1 expression modulation; PINK1 immunofluorescence, high-content cytometry, 24 h; Potency, µM (series often up to 76.6 µM), without a hit: top-dose activation (PINK1 increase), usual class: activators; hit rate 0.2% among 410,000; active = well fitted activation curve with a large enough effect; inconclusive = small, poorly fitted or top-dose-only effect; inactive = flat fitted curve, though single readings scatter; cell line not stated here;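 further: potency means the concentration at half of the fitted maximal effect; % of control where 0% means no effect; nearly all actives have a fitted effect of over 65% in size; a mitochondrial uncoupler was the plate control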
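Fluorescence from anti-PINK1 antibody, together with nuclear and cell stains, was scanned on a laser-scanning cytometer. Before staining, stable-line cells were incubated 24 hours with compounds at 5 concentrations; primary antibody 12 h at 10 degrees C.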
TRPML1 blocker = blocks the human TRPML1 channel. Q9GZU1. TRPML1-inducible cells, Ca2+ dye fluorescence, FDSS; stronger effect = lower value; inhibition of EC80 agonist-evoked calcium signal. activity change, negative = inhibition, % (test concentration not listed). hit rate 0.02% among 390,000; in the data active means activity change below about -50%; inconclusive means about -30% to -50%; inactive means above about -30%;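 further: stimulus is agonist 54-4 at its EC80 concentration; on the % scale 0 is the no-effect control and ±100 the full control effect; compound concentration not given in the record; the text of the record puts the active cut at -80%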
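TRPML1-DL cells, Tet-induced overnight (~16 h, 37 °C) at 1,500 cells/well, were loaded with Ca8 no-wash dye plus quencher for 45-90 min at room temperature. Compounds were pinned during FDSS kinetic reading; agonist 54-4 at EC80 (4 uM final) then added.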
TRPML1 ag = activates the human TRPML1 channel | TRPML1-expressing cells, Ca2+ dye fluorescence, FDSS; host cell line not named in the record; reference of the full effect not given here | activation, % (concentration not given with the values) | hit rate 0.12% among 410,000; in the data active = activation above about 50%; inconclusive = about 30% to 50%; inactive = below about 30%; further: 0% is about no effect; the text of the record puts the active cut at 80%
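Cells: TRPML1-DL, 1X Tet inducer, ~16 h at 37 degrees C/5% CO2. Dye: ABD Ca8 no-wash + quencher, 45-90 min RT. Read: 10 s baseline, compound add, 110 s agonist phase; 54-4 EC80 (4uM final), 110 s antagonist phase.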
Six1-Eya2 blk = blocks human Six1 binding to Eya2. AID 651725. AlphaScreen GST-Six1/His-Eya2 binding, biochemical; stronger effect = lower value; control for the full effect not named in the record. hit rate 0.56% among 360,000. activity change, % (test concentration not listed). Q15475+O00167; in the data active = activity change below about -65%; inconclusive = about -30% to -65%; inactive = above about -30%; further: on the % scale 0 is the no-effect control and ±100 the full control effect; compound concentration not given in the record
Target sequence (O00167 whole entry, looked up): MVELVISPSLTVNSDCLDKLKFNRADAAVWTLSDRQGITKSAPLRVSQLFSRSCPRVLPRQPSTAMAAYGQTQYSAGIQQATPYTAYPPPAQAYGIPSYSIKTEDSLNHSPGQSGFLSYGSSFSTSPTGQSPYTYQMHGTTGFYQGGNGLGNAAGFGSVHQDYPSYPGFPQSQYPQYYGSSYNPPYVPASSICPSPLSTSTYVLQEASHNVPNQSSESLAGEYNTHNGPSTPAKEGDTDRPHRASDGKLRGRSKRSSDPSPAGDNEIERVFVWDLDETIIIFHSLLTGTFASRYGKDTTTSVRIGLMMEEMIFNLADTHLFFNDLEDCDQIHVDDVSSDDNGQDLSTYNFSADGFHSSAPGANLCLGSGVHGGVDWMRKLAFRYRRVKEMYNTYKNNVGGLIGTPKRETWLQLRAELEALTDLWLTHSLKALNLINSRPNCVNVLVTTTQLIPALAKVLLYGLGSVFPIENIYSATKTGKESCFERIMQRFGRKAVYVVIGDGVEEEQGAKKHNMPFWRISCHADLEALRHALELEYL
Target sequence (Q15475 whole entry, looked up): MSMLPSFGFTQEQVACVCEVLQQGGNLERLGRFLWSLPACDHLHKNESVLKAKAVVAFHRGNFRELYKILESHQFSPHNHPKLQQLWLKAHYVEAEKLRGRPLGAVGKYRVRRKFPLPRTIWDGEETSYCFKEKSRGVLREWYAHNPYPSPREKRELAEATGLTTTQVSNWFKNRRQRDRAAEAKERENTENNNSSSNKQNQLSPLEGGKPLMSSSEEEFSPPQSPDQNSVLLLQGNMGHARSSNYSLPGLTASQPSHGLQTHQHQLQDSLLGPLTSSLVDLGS
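GST-Six1 + His-Eya2 (5X stock: 250/500 nM); Tris pH 8.0, 300 mM NaCl, 0.05% BSA, 0.02% Tween 20; GSH donor/Ni acceptor beads; 1 h 37 °C dark; AlphaScreen readout.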
D2 agonist = agonists of human D2 dopamine receptor (beta-arrestin) | P14416 | DiscoveRx PathHunter D2 beta-arrestin, luminescence, 90 min; 100% = 57 uM dopamine signal | activation, % (test concentration not listed) | hit rate 0.084% among 360,000 | AID 624465; in the data active = activation above about 40%; inconclusive = about 15% to 40%; inactive = below about 15%; further: compound concentration not given in the record; the text of the record calls up to 30% inactive
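Agonist mode: compounds alone added to overnight-plated D2 PathHunter cells for 90 min at 37 C, with 57 uM final dopamine (EC100) defining full response. Beta-arrestin recruitment detected by chemiluminescent reagent, read after 1 h at ambient temperature.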
CtBP-E1A blk = blocks the CtBP interaction with E1A; AlphaScreen GST-E1A/His-CtBP binding, 1536-well; stronger effect = lower value; control for the full effect not named in the record; activity change, % (no concentration beside the values); hit rate 0.49% among 340,000; AID 651724; in the data active means activity change below about -65%; inconclusive means about -30% to -65%; inactive means above about -30%; further: on the % scale 0 is the no-effect control and ±100 the full control effect; compound concentration not given in the record
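AlphaScreen with 125 nM GST-E1A and 125 nM His-CtBP (5X stocks) in Tris pH 8.0, 300 mM NaCl, BSA, Tween 20, TCEP. Compounds preincubated 2 h at 37 deg C, then glutathione donor/nickel acceptor beads added for 1 h at 37 deg C in dark.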
* hit, by the source's call; ? = inconclusive; . = no result given; & = joins results of further samples; [ ] = remark or other dose. Outcome played no part in choosing rows (roughly 1% active in at least one column).

compound | PINK1 expr mod | TRPML1 blocker | TRPML1 ag | Six1-Eya2 blk | D2 agonist | CtBP-E1A blk
CC(C)(C)n1ncc2c(=O)n(CC(=O)NCc3ccc(F)cc3)cnc21 | 8.4% | 20.5 | -0.6 | 7.6 | -1.8 | 7.7
CC1CCC(NC(=O)c2nn(C)c(=O)c3ccccc23)CC1 (stereo unspecified) | -0.7% | -8.2 | -0.7 | 0.8 | -2.5 | -2.0
Cc1ccc(C(=O)Nc2ccc3c(c2)OCCO3)cc1 | 1.5% | 9.9 | 0.6 | 12.3 | -3.4 | -8.5
CCOC(=O)c1[nH]c2c(c1Cc1ccccc1OC)C(=O)CC(c1ccc(OC)cc1)C2 (stereo unspecified) | 1.6% | 46.8 | 3.2 | . | . | .
CCC(C)n1c(=O)c2sccc2n2c(CCCC(=O)NCc3ccccc3Cl)nnc12 (stereo unspecified) | 2.3% | 16.7 | -0.5 | . | . | .
O=c1c2ccccc2nnn1CSc1nc2ccccc2c(=O)n1Cc1ccco1 | 14.4%[38.3 µM] | 0.8 | 1.0 | 1.4 | -1.2 | 1.2
CC(=O)Nc1ccc(S(=O)(=O)NC2=NCN(c3cccc([N+](=O)[O-])c3)CN2)cc1 | 2.4% | -16.1 | -1.0 | -5.4 | -1.9 | 6.0
CCNC(=O)NC(=O)CSc1ccccc1F | 0.0% | -9.4 | -0.1 | 10.2 | -1.9 | 0.0
Cc1ccc(CSc2ccc3nnc(-c4ccccn4)n3n2)cc1 | 0.7% | 3.1 | -0.1 | ? | -0.8 | ?
O=C1CC(N2CCN(c3ccccn3)CC2)C(=O)N1c1ccc(Cl)cc1 (stereo unspecified) | -1.3% | 0.7 | 1.0 | 0.2 | 2.8 | .
CCn1c(SCC(=O)NC2CCCC2)nnc1-c1ccoc1C | -1.5% | 20.3 | -0.1 | 3.9 | -6.7 | 0.7
COc1ccc(-c2[nH]ncc2CN2CCC(OCc3ccccc3)CC2)c(F)c1 | -0.3% | 2.8 | 0.1 | 0.4 | -0.6 | 0.0
CC(NC(=O)CN1CCCC1)c1ccccc1 (stereo unspecified) | -0.3% | -12.4 | 0.6 | 6.4 | 1.2 | 4.5
COc1ccc(NC(=O)CN(C)C(=O)c2ccc(S(=O)(=O)Nc3ccccc3F)cc2)cc1 | 0.7% | -1.7 | 0.7 | -5.7 | 2.6 | -2.3
c1ccc2nc3c(cc2c1)CCCCC3 | 1.7% | . | . | 0.3 | -5.5 | 7.9
C=CCNC(=O)NC(=O)COC(=O)/C=C/c1cccc([N+](=O)[O-])c1 | 0.0% | -1.6 | -1.2 | 1.5 | -4.2 | -0.3
Cc1ccc(NC(=O)c2cccc(S(=O)(=O)N3CCCc4ccccc43)c2)nc1 | 1.2% | -0.5 | 4.0 | 3.9 | 11.3 | -9.2
O=C(CSc1n[nH]c(=O)n1C1CC1)Nc1ccc(Cl)c(Cl)c1 | 1.5% | 17.8 | 0.0 | -8.0 | -1.2 | -10.4
O=C(COc1ccc(Br)cc1F)NC1CC1 | -0.8% | -9.3 | 1.1 | 1.0 | -0.6 | 11.4
Cc1cn(S(=O)(=O)c2ccc(Br)cc2)cn1 | -2.8% | -11.1 | 0.1 | -0.3 | 1.1 | 4.6
CC1(C)CC2(CCO1)OC(=O)CC2C(=O)Nc1ccccc1Cl (stereo unspecified) | 1.8% | 0.7 | 0.2 | -1.6 | -5.3 | .
CC(C(=O)c1ccccc1)n1cnc2ccccc2c1=O (stereo unspecified) | 0.2% | 2.0 | -0.4 | 5.0 | -1.2 | -0.1
CN(Cc1ccccc1)C(=O)CCS(=O)(=O)c1ccc2c(c1)oc(=O)n2C | 0.6%&2.7% | 5.8&-7.5 | -0.5&-0.9 | 2.5 | -2.7 | 6.1
O=C(Nc1ccccc1)N1CCSc2cc(Cl)ccc21 | 6.5% | 21.3 | 1.4 | -0.8 | 0.6 | 6.0
Cc1ccc(NC(=O)Nc2ccccc2)c(Br)c1 | 5.5% | 3.4 | -0.4 | 3.6 | -0.3 | -16.6

Quoted from above, 2 compounds:
compound | PINK1 expr mod | TRPML1 blocker | TRPML1 ag | Six1-Eya2 blk | D2 agonist | CtBP-E1A blk
CC(C)(C)n1ncc2c(=O)n(CC(=O)NCc3ccc(F)cc3)cnc21 | 8.4% | 20.5 | -0.6 | 7.6 | -1.8 | 7.7
CC1CCC(NC(=O)c2nn(C)c(=O)c3ccccc23)CC1 (stereo unspecified) | -0.7% | -8.2 | -0.7 | 0.8 | -2.5 | -2.0

Structures listed so far with a furan ring, fused or not, in the order listed:
compound | PINK1 expr mod | TRPML1 blocker | TRPML1 ag | Six1-Eya2 blk | D2 agonist | CtBP-E1A blk
O=c1c2ccccc2nnn1CSc1nc2ccccc2c(=O)n1Cc1ccco1 | 14.4%[38.3 µM] | 0.8 | 1.0 | 1.4 | -1.2 | 1.2
CCn1c(SCC(=O)NC2CCCC2)nnc1-c1ccoc1C | -1.5% | 20.3 | -0.1 | 3.9 | -6.7 | 0.7

(more compounds)
compound | PINK1 expr mod | TRPML1 blocker | TRPML1 ag | Six1-Eya2 blk | D2 agonist | CtBP-E1A blk
NNC(=O)C1CC(O)CN1S(=O)(=O)c1ccc(Cl)cc1 (stereo unspecified) | 1.2% | 4.9 | 0.0 | 5.0 | -1.4 | 5.2
Cc1nnc(SCC(=O)Nc2nnc(-c3ccccc3)o2)s1 | 3.5% | 5.8 | -0.1 | -27.4 | -3.7 | 5.2
COc1cc(-c2cc3nc(C)c(C)c(=O)n3[nH]2)cc(OC)c1OC | . | 9.3 | -0.1 | -21.0 | 1.1 | 10.2
Cc1ccc(-c2nonc2NC(=O)c2ccco2)cc1 | 0.9% | 2.1 | 2.4 | 1.2 | 0.4 | .
Cc1c(C(=O)N2CCCCC2)nnn1-c1nonc1N | -2.6% | 11.8 | 1.2 | -0.8 | -5.2 | 6.2
COc1cccc(NC(=O)CN(C)C(=O)/C=C/c2cn(-c3ccccc3)nc2-c2ccc(OC)c(OC)c2)c1 | 2.4% | 8.9 | 0.2 | -9.1 | -0.5 | -11.4
COc1ccc(Cl)cc1NC(=O)N(C)Cc1c(C)nn(C)c1C | 0.2%[38.3 µM] | -4.8 | -0.5 | -1.4 | -0.2 | 0.2
Cc1ccc(C(=O)NC(=S)N2CCN(C)CC2)cc1Br | 2.5% | 11.5 | -0.5 | 1.6 | -3.7 | 0.5
Cc1ccc(S(=O)(=O)N2CC(=O)N3CCN(CCN)C3C2)cc1 (stereo unspecified) | 0.6% | -8.1 | 0.3 | 14.3 | 0.2 | 0.0
CC(=O)Nc1ccc(-c2ccnc3c2CC(C(=O)NCCc2ccccc2)O3)cc1 (stereo unspecified) | 2.8% | . | -0.6 | 1.0 | -2.6 | 4.5
Cc1cc(C)cc(N(CCC#N)C(=O)CSc2nc3ccccc3c(=O)[nH]2)c1 | -0.8% | -6.1 | 8.2 | -8.8 | -2.7 | -1.7
CCOC(=O)C1CCN(C(=S)Nc2cccc(C)c2C)CC1 | -1.6% | -16.3 | -0.2 | 3.9 | -3.5 | -0.2
COc1ccc(Nc2c3c(nc4ccc(NC(=O)/C=C/c5cc(OC)c(OC)c(OC)c5)cc24)CCCC3)cc1OC | -0.4% | -6.2 | 0.4 | . | . | .
CNC(=O)CSc1nnc(-c2cccnc2)n1-c1ccc(C)cc1 | -0.1% | 24.7 | -0.9 | -5.7 | -4.9 | -0.4
O=C1C2CC=C(Cl)CC2C(=O)N1CNc1ccccn1 (stereo unspecified) | 0.4% | 0.4 | -0.1 | 14.6 | -6.4 | -13.9
O=C(NCC1CCCO1)c1cccc(Oc2ccc([N+](=O)[O-])cc2)c1 (stereo unspecified) | 1.4% | -3.5 | 0.8 | -8.8 | 2.1 | 2.2
CC(=O)NCCc1cc2ccc(C)c(C)c2[nH]c1=O | -0.5% | -0.9 | -0.9 | 1.1 | 0.1 | 4.4
O=[N+]([O-])c1cccc(-c2ccc(C(=S)N3CCOCC3)o2)c1 | 1.4% | -10.3 | -1.2 | -26.0 | 1.4 | -25.3
Cc1cc(C)c(C#N)c(SCC(=O)Nc2ccc(S(=O)(=O)Nc3onc(C)c3C)cc2)n1 | 0.6% | -5.5 | -0.6 | -14.7 | -6.7 | -8.3
Cc1cc(S(=O)(=O)N2CCCCC2)ccc1OCC(=O)N1CCCC1 | 0.9% | 31.2 | 0.0 | 5.9 | 1.2 | 6.2
CC(=O)Nc1ccc(NC(=O)C2(C)Cc3c(-c4ccccc4)ccnc3O2)cc1 (stereo unspecified) | 0.1% | . | -0.9 | -4.2 | -3.9 | -0.1
CCCCN(C(=O)CC1CCCC1)c1c(N)n(Cc2ccccc2)c(=O)[nH]c1=O | 0.3% | -20.9 | -0.7 | -4.7 | -0.5 | -6.5
Cn1nc(C(=O)Nc2ccc(Cl)c(S(=O)(=O)N3CCOCC3)c2)c2ccccc2c1=O | 2.2% | 50.2 | 1.0 | -29.2 | 8.5 | -25.0
COc1ccc(OCCC(=O)NCC23CC4CC(CC(C4)C2)C3)cc1 | -0.8% | 8.0 | -0.3 | 5.6 | -1.6 | 8.3
CCOC(=O)[C@]12CCCC=C1N(Cc1cccc3ccccc13)C(=O)[C@H](CC(=O)NCCCCc1ccccc1)C2 | 0.0% | . | -0.1 | -16.9 | . | -2.0

Full records, quoted from the list.
`Cn1nc(C(=O)Nc2ccc(Cl)c(S(=O)(=O)N3CCOCC3)c2)c2ccccc2c1=O` is listed with PINK1 expr mod: 2.2%; TRPML1 blocker: 50.2; TRPML1 ag: 1.0; Six1-Eya2 blk: -29.2; D2 agonist: 8.5; CtBP-E1A blk: -25.0
`COc1ccc(Nc2c3c(nc4ccc(NC(=O)/C=C/c5cc(OC)c(OC)c(OC)c5)cc24)CCCC3)cc1OC` is listed with PINK1 expr mod: -0.4%; TRPML1 blocker: -6.2; TRPML1 ag: 0.4; Six1-Eya2 blk: .; D2 agonist: .; CtBP-E1A blk: .

The listing continues.
compound | PINK1 expr mod | TRPML1 blocker | TRPML1 ag | Six1-Eya2 blk | D2 agonist | CtBP-E1A blk
CCn1cc(CN2CCN(Cc3ccccc3)C(CCO)C2)c2ccccc21 (stereo unspecified) | 2.9% | -4.3 | 0.2 | -1.4 | -2.6 | 17.0
Cc1ccc(C(=O)c2c[nH]c(C(=O)NCCCN3CCOCC3)c2)cc1 | 0.9%[38.3 µM] | 2.8 | -0.7 | -3.3 | -0.8 | -1.7
Cc1cccc(/C=C/c2onc(C)c2S(=O)(=O)N2CCC(C(=O)N3CCCCCC3)CC2)c1 | 2.9% | -19.9 | 0.1 | -9.9 | -2.6 | -7.9
Cc1ccc(C(NC(=O)NN2CCN(C)CC2)C(Cl)Cl)cc1F (stereo unspecified) | -0.5% | 12.4 | 0.2 | -3.2 | -3.6 | -0.5
COc1ccc(OCCCC(=O)ON=C(N)c2ccccc2C)cc1 | 1.4% | -6.4 | 0.5 | 16.2 | -0.1 | .
Cc1ccc(N2CCN(C(=S)c3ccc(N(C)C)cc3)CC2)cc1 | -1.2%[38.3 µM] | -1.5 | 1.5 | ? | -1.0 | -21.9

Screening data: PubChem, National Center for Advancing Translational Sciences (NCATS)
